gsp antagonist – gsp mutant antagonism; gsp-mutant cells, cAMP HTRF, 30 min; control for the full effect not named in the record; Potency, µM (top dose mostly 76.9 µM), for the others: top-dose activity change, negative = inhibition, most hits filed as inhibitors; 340,000 compounds, 0.4% hits; AID 624288; active = falling curve of any shape with a large fitted effect; inconclusive = falling curve, mostly with a smaller effect; inactive = flat or rising curve; cell line not stated here;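 note: intracellular cAMP measured with PDE inhibitor Ro 20-1724 present during compound exposure; potency is the fitted concentration of half-maximal effect; % is set by controls: 0 for no effect and ±100 for the full control effect; nearly all actives have a fitted effect of over 65% in size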
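G418-selected cells were plated in DMEM/10% FBS for 16-24 h at 37C, then treated with compounds plus the PDE inhibitor […] (300 uM solution added) for 30 min at 37C. Intracellular cAMP was measured by HTRF after 30 min lysis at room temperature.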
gsp agonist – activates gsp, the McCune-Albright syndrome mutation; gsp mutant cells, cAMP HTRF, 30 min; control for the full effect not named in the record; Potency, µM (doses to about 76.9 µM), for the others: top-dose activation (cAMP increase), most hits filed as activators; 340,000 compounds, 0.13% hits; active = well fitted activation curve with a large enough effect; inconclusive = small, poorly fitted or top-dose-only effect, or another doubt; inactive = no such curve, though single readings can be large or run the other way; cell line not stated here;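 note: phosphodiesterase inhibitor Ro 20-1724 added with compounds to block cAMP breakdown; potency is the fitted concentration of half-maximal effect; nearly all actives have a fitted effect of over 60% in size; about a fifth of the inactives were tested at one dose only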
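Cells in DMEM/10% FBS with G418 were pretreated with compounds in DMSO plus […] (300 uM stock) for 30 min at 37C. cAMP was measured by HTRF (cAMP-d2 plus anti-cAMP antibody-K) after 30 min at room temperature.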
Menin-MLL FL inh – inhibitors of human menin-MLL interaction, wild-type MLL peptide; Fluorescence polarization, fluorescein-MLL peptide displacement from menin; FP activity change, % at 61.4 µM; 290,000 tested, under 10 active; inconclusive = falling polarisation curve, or a change in total fluorescence; inactive = total fluorescence flat and polarisation flat or rising; no compound was filed as active; the % refers to the polarisation; negative = inhibition;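 note: % of control where 0% means no effect; inhibitors lower the polarisation; unlabelled MLL peptide was the positive control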
TRPML1 agonist – activates the human TRPML1 channel. Q9GZU1. TRPML1-expressing cells, Ca2+ dye fluorescence, FDSS; host cell line not named in the record; reference of the full effect not given here. activation, % (test concentration not listed). 410,000 compounds, 0.12% hits. AID 624414; in the data active = activation above about 50%; inconclusive = about 30% to 50%; inactive = below about 30%; note: 0% is about no effect; the text of the record puts the active cut at 80%
Target sequence (Q9GZU1 whole entry, looked up): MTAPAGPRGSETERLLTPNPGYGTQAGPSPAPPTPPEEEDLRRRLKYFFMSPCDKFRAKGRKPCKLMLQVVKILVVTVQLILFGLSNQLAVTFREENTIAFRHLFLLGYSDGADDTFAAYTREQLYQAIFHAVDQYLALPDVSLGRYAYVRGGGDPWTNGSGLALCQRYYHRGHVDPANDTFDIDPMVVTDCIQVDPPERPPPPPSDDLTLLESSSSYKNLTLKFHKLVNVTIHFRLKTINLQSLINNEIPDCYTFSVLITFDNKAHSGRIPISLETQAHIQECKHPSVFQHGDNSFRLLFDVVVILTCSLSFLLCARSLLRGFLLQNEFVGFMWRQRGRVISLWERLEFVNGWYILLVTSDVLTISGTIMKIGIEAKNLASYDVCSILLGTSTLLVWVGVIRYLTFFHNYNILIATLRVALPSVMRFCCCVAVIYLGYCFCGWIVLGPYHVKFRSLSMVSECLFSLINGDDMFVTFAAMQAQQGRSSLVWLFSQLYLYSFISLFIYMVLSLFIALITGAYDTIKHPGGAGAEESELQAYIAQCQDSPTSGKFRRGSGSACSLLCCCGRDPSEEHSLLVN
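Cells: TRPML1-DL, 1X Tet inducer, ~16 h at 37 degrees C/5% CO2. Dye: ABD Ca8 no-wash + quencher, 45-90 min RT. Read: 10 s baseline, compound add, 110 s agonist phase; 54-4 EC80 (4uM final), 110 s antagonist phase.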
TRPML1 blocker – blocks the human TRPML1 channel | Q9GZU1 | TRPML1-inducible cells, Ca2+ dye fluorescence, FDSS; active compounds read low; inhibition of EC80 agonist-evoked calcium signal | activity change, negative = inhibition, % (test concentration not listed) | 390,000 compounds, 0.02% hits | AID 624415; in the data active means activity change below about -50%; inconclusive means about -30% to -50%; inactive means above about -30%;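 note: stimulus is agonist 54-4 at its EC80 concentration; % is set by controls: 0 for no effect and ±100 for the full control effect; compound concentration not given in the record; the text of the record puts the active cut at -80%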
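Tet-induced TRPML1-DL cells loaded with Ca8 no-wash calcium dye were read kinetically on FDSS. Compound addition was followed by EC80 agonist 54-4 (4 uM final); inhibition was read over 110 s.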
ClpP mod – qHTS Assay for Activators of ClpP; ATP-dependent Clp protease proteolytic subunit (Bacillus subtilis (strain 168)), P80244; purified B. subtilis ClpP, FRET peptide cleavage, 20 min; Potency, µM (doses to about 57.5 µM), without a hit: top-dose activity change, negative = active; 340,000 compounds, 1.9% hits; AID 651965, 2013; active = well fitted falling curve with a large enough effect; inconclusive = small, poorly fitted or top-dose-only effect; inactive = no such curve, though single readings can be large or run the other way; note: potency is the fitted concentration of half-maximal effect; the source files actives as falling curves though it sought activators and does not explain the sign; nearly all actives have a fitted effect of over 65% in size; many hits overshoot -100%
Target sequence (P80244 whole entry, looked up): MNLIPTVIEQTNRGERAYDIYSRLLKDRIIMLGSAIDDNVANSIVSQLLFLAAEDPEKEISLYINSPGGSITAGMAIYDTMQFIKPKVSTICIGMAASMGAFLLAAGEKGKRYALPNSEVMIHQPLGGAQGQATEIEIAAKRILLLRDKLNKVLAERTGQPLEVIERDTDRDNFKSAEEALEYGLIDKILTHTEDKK
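ClpP 10 microg/mL final, pH 8 Tris/KCl buffer with BSA, glycerol, Tween-20; compound pinned in; FRET-FV substrate; RT 20 min; Ex320/Em430; ΔFRET vs ADEP 5.8 microM, DMSO, no enzyme.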
Numbers without * were called inactive; [ ] = remark or other dose.

For CC(C)(C)Nc1nc(NC(C)(C)C)nc(-n2ccnc2)n1 the results were gsp antagonist -34%, gsp agonist -6%, Menin-MLL FL inh 2.4, TRPML1 agonist -0.2, TRPML1 blocker -2 and ClpP mod 1.9%.
`COC(=O)C[C@H]1c2cc(F)ccc2S(=O)(=O)N1C(C)C` gave gsp antagonist 4%, TRPML1 agonist 0.2, TRPML1 blocker 31 and ClpP mod 0.8%.
For O=C(CN1C(=O)NC2(CCc3ccccc32)C1=O)Nc1c(Cl)cccc1Cl (centres undefined) the results were gsp antagonist -9%, gsp agonist 0%, TRPML1 agonist 0.5, TRPML1 blocker -5 and ClpP mod -0.9%.
For Cc1cc(C(=O)NNc2ccc(C(C)C)cc2)n(C(C)(C)C)n1 the results were gsp antagonist -7%, gsp agonist -40%[inhibitor], Menin-MLL FL inh 0.4, TRPML1 agonist 4.1, TRPML1 blocker 5 and ClpP mod -0.4%.
Screening COc1cc(NC(=S)N2CCN(S(=O)(=O)c3ccc(F)cc3)CC2)cc(OC)c1 returned gsp antagonist 4%, gsp agonist 11%[15.4 µM], Menin-MLL FL inh -0.8, TRPML1 agonist -0.7, TRPML1 blocker -8 and ClpP mod 0.9%.
For S=c1[nH]nc(-c2ccc(Cl)cc2)n1Cc1ccccc1 the results were gsp antagonist -8%, gsp agonist 12%, Menin-MLL FL inh 5.2, TRPML1 agonist 3.6, TRPML1 blocker -16 and ClpP mod -12%.
For COc1cc(N2C(=O)CSC23C(=O)N(C)c2ccccc23)cc(OC)c1OC (centres undefined) the results were TRPML1 agonist 1.1, TRPML1 blocker 10 and ClpP mod -1.4%.
For Cc1nnc(N2CCC(C(=O)NCc3cccc(Cl)c3)CC2)c2nn(-c3ccccc3)c(C)c12 the results were TRPML1 agonist -0.1, TRPML1 blocker 8 and ClpP mod 26%.
Screening CCCCC(C(=O)N/N=C/c1ccccn1)C(=O)N/N=C/c1ccccn1 returned gsp antagonist 0%, gsp agonist 3%[15.4 µM], Menin-MLL FL inh 2.1, TRPML1 agonist -0.4 and TRPML1 blocker 5.
`O=C(COc1ccccc1)c1cn(CC(=O)N2CCOCC2)c2ccccc12` gave gsp antagonist -8%, gsp agonist 23%, Menin-MLL FL inh 8.8, TRPML1 agonist -0.3, TRPML1 blocker -10 and ClpP mod -0.5%.
`COc1ccc(S(=O)(=O)NCC(=O)N(CC(=O)NCc2ccco2)Cc2ccccc2)cc1` gave gsp antagonist -9%, gsp agonist -2%, Menin-MLL FL inh -3.0, TRPML1 agonist 0.0 and TRPML1 blocker 9.
`Cc1cc(C)nc(N2CCC(C(=O)O)CC2)n1` gave gsp antagonist 7%, gsp agonist -8%, Menin-MLL FL inh 2.9, TRPML1 agonist 1.6, TRPML1 blocker -11 and ClpP mod 20µM*.
COC(=O)C(Cc1ccccc1)NC(=O)CSc1nc(N)cc(=O)[nH]1 (centres undefined) was read as gsp antagonist 9%[15.4 µM], gsp agonist 8%, Menin-MLL FL inh -3.9, TRPML1 agonist -0.3, TRPML1 blocker -17 and ClpP mod 0.7%.
Screening O=S(=O)(NCCc1nnc2ccc(SCc3ccc(C(F)(F)F)cc3)nn12)c1ccccc1 returned TRPML1 agonist -0.4, TRPML1 blocker -5 and ClpP mod -2.2%.
COc1ccc(N(CC(=O)Nc2cccnc2)S(=O)(=O)c2ccc(C)cc2)cc1Cl was read as gsp antagonist inconclusive, gsp agonist 18%[15.4 µM], Menin-MLL FL inh 4.0, TRPML1 agonist 0.0 and TRPML1 blocker -7.
`Cc1noc(C)c1NC(=O)Nc1ccc2c(c1)C(=O)N([C@H](C)CO)C[C@H](C)[C@@H](CN(C)S(=O)(=O)c1ccc(Cl)cc1)OCCCC[C@@H](C)O2` gave gsp agonist -86%[inhibitor], TRPML1 agonist 0.6, TRPML1 blocker 4 and ClpP mod -1.6%.
For O=P(O)(CCc1ccncc1)CN1CCCCC1 the results were gsp antagonist 4%, gsp agonist inconclusive, Menin-MLL FL inh 5.3, TRPML1 agonist 0.6, TRPML1 blocker -3 and ClpP mod -2.4%.
`CCOC(=O)c1cccc(NC(=O)Cn2c(=O)nc(-c3ccccc3F)c3cc(Cl)ccc32)c1` gave TRPML1 agonist 1.2, TRPML1 blocker 10 and ClpP mod -10%.
For CCN1CCN(C(=O)c2ccc3c(Cl)c4c(nc3c2)CCCC4)CC1 the results were gsp antagonist -9%, gsp agonist 9%, TRPML1 agonist 0.3, TRPML1 blocker 0 and ClpP mod 0.2%.
For COc1cccc(-n2c(N)c(-c3nc4ccccc4[nH]3)sc2=S)c1 the results were gsp antagonist 4%, gsp agonist -7%[15.4 µM], Menin-MLL FL inh 0.0, TRPML1 agonist -1.3 and TRPML1 blocker -6.
For CCSc1nnc(NC(=O)NC(CC)(C(F)(F)F)C(F)(F)F)s1 the results were gsp antagonist -2%, gsp agonist -78%[inhibitor], Menin-MLL FL inh 0.0, TRPML1 agonist -0.3, TRPML1 blocker 2 and ClpP mod 1.4%.
`Cc1cc(Br)c2c(c1)C1(OCCO1)C(=O)N2` gave gsp antagonist 5%, gsp agonist inconclusive, Menin-MLL FL inh 2.6, TRPML1 agonist -0.3, TRPML1 blocker 0 and ClpP mod 3.3%.
`Cc1c(C(=O)Nc2ccccc2)cn2c(nc3ccccc32)c1C#N` gave gsp antagonist 12%, gsp agonist inconclusive, Menin-MLL FL inh 6.6, TRPML1 agonist 1.7, TRPML1 blocker 15 and ClpP mod 5.0%.
Screening CCOc1cc(C)nc(N2CCC(C(=O)NC3CC3)CC2)n1 returned gsp antagonist 9%, gsp agonist -2%[15.4 µM], TRPML1 agonist 0.4 and TRPML1 blocker 6.
`CCOC(=O)C1(Cc2ccc(OC)cc2)CCN(C(=O)C2=CCCC2)CC1` gave gsp antagonist -12%, gsp agonist -1%, Menin-MLL FL inh 1.3, TRPML1 agonist 0.9 and TRPML1 blocker 1.
Cc1ccc(S(=O)(=O)/N=C2/C=C(C3C(=O)CC(C)(C)CC3=O)C(=O)c3ccccc32)cc1 was read as gsp antagonist -3%, gsp agonist 4%, Menin-MLL FL inh -1.8, TRPML1 agonist -0.6, TRPML1 blocker -12 and ClpP mod -1.9%.
`[O-][n+]1onc2c3ccnnc3ccc21` gave gsp antagonist -7%, gsp agonist 0%, Menin-MLL FL inh 1.7, TRPML1 agonist -0.4, TRPML1 blocker 3 and ClpP mod -1.6%.
For Cc1ccccc1CSCCNC(=O)CN(c1ccc2c(c1)OCO2)S(C)(=O)=O the results were gsp antagonist -8%, gsp agonist -10%, Menin-MLL FL inh -1.1, TRPML1 agonist 0.5, TRPML1 blocker -8 and ClpP mod 0.5%.
`Cc1nn(-c2ccccc2)cc1/C=N/NC(=O)c1cccs1` gave gsp antagonist -7%, gsp agonist 32%, Menin-MLL FL inh 0.1, TRPML1 agonist 1.4, TRPML1 blocker 28 and ClpP mod -13%.
Screening C#CCN1C(=O)C(O)(CC(=O)c2ccc(OC)c(OC)c2)c2ccccc21 (centres undefined) returned gsp antagonist -3%, gsp agonist -40%[inhibitor], Menin-MLL FL inh -1.4, TRPML1 agonist -0.8, TRPML1 blocker -7 and ClpP mod -3.4%.
Screening O=C(NCC1CCCO1)c1coc2nc3ccccc3nc12 (centres undefined) returned gsp antagonist -2%, gsp agonist 9%, Menin-MLL FL inh 9.0, TRPML1 agonist -0.5, TRPML1 blocker -8 and ClpP mod 19%.
COc1ccc(-n2nc3c(c2NC(=O)C2CC2)CS(=O)C3)cc1 (centres undefined) was read as gsp antagonist -6%, gsp agonist -3%, Menin-MLL FL inh -1.9, TRPML1 agonist 2.7, TRPML1 blocker 20 and ClpP mod -4.1%.
`O=C(CNc1ccccc1Cl)Nc1cc(S(=O)(=O)N2CCOCC2)ccc1Cl` gave gsp antagonist -21%, gsp agonist -17%, TRPML1 agonist 0.5, TRPML1 blocker -2 and ClpP mod -2.7%.
For COn1c2c(c3c4no[n+]([O-])c4ccc31)CCCC2 the results were gsp antagonist 4%, gsp agonist -4%, Menin-MLL FL inh -2.0, TRPML1 agonist -0.5, TRPML1 blocker 3 and ClpP mod -7.9%.
`CCC(=O)Nc1ccc(NC(=O)c2c(C)nc3ccccn23)cc1` gave gsp antagonist 5%, gsp agonist inconclusive, Menin-MLL FL inh -0.7, TRPML1 agonist -0.5, TRPML1 blocker -2 and ClpP mod -1.3%.
For COc1ccc(C2NC(=O)NC(O)(C(F)(F)F)C2C(=O)c2ccccc2)cc1OC (centres undefined) the results were gsp antagonist -7%, gsp agonist 2%, Menin-MLL FL inh 1.3, TRPML1 agonist -0.5, TRPML1 blocker 18 and ClpP mod 0.3%.
`O=C(CSc1nc2ccccc2c(=O)n1C1CC1)NCc1ccccc1` gave gsp antagonist -6%, gsp agonist inconclusive, Menin-MLL FL inh 2.7, TRPML1 agonist 0.7, TRPML1 blocker -5 and ClpP mod -1.7%.
COc1ccc(NS(=O)(=O)c2cc(C)ccc2C)cc1 was read as gsp antagonist inconclusive, gsp agonist 1%, Menin-MLL FL inh 3.3, TRPML1 agonist 0.3, TRPML1 blocker -1 and ClpP mod 1.2%.
`CC1CCC(NC(=O)c2cc3c(Cl)nc4ccccc4c3s2)CC1` (centres undefined) gave TRPML1 agonist -1.3, TRPML1 blocker -12 and ClpP mod -17%.
Screening CNC(=O)NC(=O)C(OC(=O)c1cccc(S(=O)(=O)N2CCCCC2)c1)c1ccccc1 (centres undefined) returned gsp antagonist -14%, gsp agonist -8%, Menin-MLL FL inh 5.3, TRPML1 agonist 0.4, TRPML1 blocker -18 and ClpP mod -1.6%.
CCCS(=O)(=O)NC(=O)C1(C)CCCN(C(=O)c2cc(F)cc(F)c2)C1 (centres undefined) was read as TRPML1 agonist -0.3, TRPML1 blocker 9 and ClpP mod 0.2%.
For C[C@H](NC(=O)c1ccccc1Cl)C(=O)OCc1cn2cc(Cl)ccc2n1 the results were gsp antagonist -12%, gsp agonist 12%, TRPML1 agonist 0.4, TRPML1 blocker 18 and ClpP mod -6.6%.
`O=C(COC(=O)c1ccc([N+](=O)[O-])o1)NCc1ccc2c(c1)OCO2` gave gsp antagonist 8%, gsp agonist 4%, TRPML1 agonist -0.1, TRPML1 blocker 20 and ClpP mod 0.0%.
`COc1ccccc1CNC(=O)CN1C(=O)NC2(CCOc3ccccc32)C1=O` (centres undefined) gave gsp antagonist 10%, gsp agonist 13%, TRPML1 agonist 0.1, TRPML1 blocker 13 and ClpP mod -0.7%.
`COc1ccc(S(=O)(=O)N2CCCC(C(=O)N3CCN(c4ccccc4)CC3)C2)cc1Cl` (centres undefined) gave gsp antagonist -26%, gsp agonist -24%, TRPML1 agonist 1.0, TRPML1 blocker -10 and ClpP mod 4.2%.
